Bioassay records deposited in PubChem BioAssay by several laboratories.
T cruzi inh – inhibitors of intracellular T. cruzi growth, primary screen, luminescence, NIH3T3 host cells; 1.4% of 300,000 active; T. cruzi beta-gal in NIH3T3, 90 h; inhibition, % (concentration not given with the values);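 active = mean inhibition across valid replicates above about 55%, limit read from the data; inconclusive = mean below that limit but half or more replicates reach it; inactive = mean below it, under half of replicates reach it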;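 note: signal also drops with host cell toxicity which is not excluded here; 0% = plate median of DMSO wells and 100% = zero luminescence signal; higher percent means less beta-gal luminescence so fewer parasites; stock transfer was 50 nL into about 50 µL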
RanGTP-Imp inh – inhibitors of RanGTP-importin-beta interaction, primary screen, biochemical, FRET, CFP-Ran, YFP-importin-beta, homogeneous | Ran GTPase (GTP-bound) - importin-beta complex | cell-free CFP-Ran/YFP-importin-beta FRET ratio | inhibition, % (concentration not given with the values) | 1.1% of 300,000 active | AID 2216, 2009;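 active = most replicates above 15%; inconclusive = exactly half above 15%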;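 note: 0% = DMSO wells and 100% = Ran loaded with GDP instead of GTP; wells of about 40 µL received 100 nL stock; the first replicate is given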
Vif A3G – inhibitors of Vif binding to APOBEC3G peptide, primary screen, biochemical, TR-FRET, GST-Vif 1-94, biotin-A3G peptide, dose response retest (AID 1117319) | 0.57% of 260,000 active | TR-FRET GST-Vif / biotin-A3G peptide binding; higher % means a stronger effect; test concentration not given here; strong numbers were not always called active | inhibition, %; hits with a dose series show IC50 in µM;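 active = above the screen mean plus three standard deviations and confirmed in dose response; inconclusive = results disagree or hit not tested in dose response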;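 note: Vif residues 1-94 fused to GST binding biotinylated APOBEC3G peptide 110-148; 0% = full assay without inhibitor and 100% = GST in place of GST-Vif; retest series ran down from 100 µM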
rRNA inh HTS – reduced GFP signal of wild-type E. coli, primary screen, bacterial rRNA inhibitor project, GFP/RFP fluorescence, OD600, single point; 1.6% of 350,000 active; E. coli WT GFP vs humanized-ribosome RFP mutants, 24 h; active compounds read low; DMSO median 0, no signal -100; AID 720706, 2013; GFP signal change (wild-type ribosome), % (test concentration not listed);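 active = significant combined selectivity score with lowered wild-type GFP, culture density cut under 30%, mutant RFP and density less affected; inactive = any of these conditions unmet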; note: one replicate is shown; some compounds called inactive have numbers as strong as hits
MLL AF4-AF9 inh – inhibitors of AF4 peptide binding to AF9, primary screen, biochemical, AlphaScreen, biotin-AF4 peptide, FLAG-AF9, single point. 0.47% of 350,000 active. inhibition, % at 10 µM. Protein AF-9 (Homo sapiens), P42568;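 active = every replicate reaching a set inhibition limit, whatever the replicate mean, cut at about 25% in these data; inconclusive = mean inhibition reaches that limit but some replicates miss it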;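 note: 0% = plate neutral control median and 100% = total signal loss; the record names both 10 and 1 µM as test concentration; the first replicate is given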
Target sequence (P42568 whole entry, looked up): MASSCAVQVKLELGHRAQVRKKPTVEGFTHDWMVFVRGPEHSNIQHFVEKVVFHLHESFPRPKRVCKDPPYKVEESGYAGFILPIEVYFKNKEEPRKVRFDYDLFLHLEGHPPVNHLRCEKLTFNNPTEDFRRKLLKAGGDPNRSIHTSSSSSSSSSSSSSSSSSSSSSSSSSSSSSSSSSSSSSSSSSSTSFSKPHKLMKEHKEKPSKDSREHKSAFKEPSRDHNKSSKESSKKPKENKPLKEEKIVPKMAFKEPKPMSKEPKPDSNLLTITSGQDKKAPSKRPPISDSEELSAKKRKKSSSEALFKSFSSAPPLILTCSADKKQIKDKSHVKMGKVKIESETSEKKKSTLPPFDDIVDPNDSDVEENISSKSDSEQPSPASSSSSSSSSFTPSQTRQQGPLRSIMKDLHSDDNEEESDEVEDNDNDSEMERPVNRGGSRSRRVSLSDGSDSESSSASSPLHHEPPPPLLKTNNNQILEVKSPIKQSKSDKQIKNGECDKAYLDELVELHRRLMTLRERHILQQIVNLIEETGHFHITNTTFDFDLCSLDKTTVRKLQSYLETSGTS
Calb FLC – C. albicans growth inhibition with fluconazole, primary screen, CaCi-2 strain, Alamar Blue fluorescence; C. albicans CaCi-2 (fluconazole-resistant clinical isolate) + fluconazole, 48 h; growth inhibition, % (concentration not given with the values); 0.57% of 300,000 active; AID 1979, 2009;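 active = most replicates above 75%; inconclusive = exactly half above 75%; inactive = most below 75%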;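 note: all wells also contain fluconazole at 8 µg/ml as a sub-toxic cotreatment; 0% = median of DMSO wells and 100% = median of geldanamycin control wells; wells of about 8 µL received 7.5 nL stock; the first replicate is given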
Beta apoptosis – inhibitors of cytokine-induced beta cell apoptosis, primary screen, luminescence; INS-1E cytokine-induced death, ATP luminescence, 48 h; percent of positive-control rescue, neutral wells zero; protection from apoptosis, % (concentration not given with the values); 0.8% of 300,000 active;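 active = all replicates at 75% or more, or half of them and the mean; inconclusive = half reach 75% but not the mean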;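 note: 0% = cytokine-treated negative control wells and 100% = positive control rescue; higher means more ATP so stronger rescue from cytokine killing; wells of about 40 µL received 100 nL stock; the first replicate is given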
Bfl-1 A1 inh – caspase 3/7 activation in MEF A1-2A-BIM cells, primary screen, A1 inhibitor project, cell-based, luminescence, HTS | Caspase-Glo 3/7 luminescence, 3 h; percent of clofoctol response, vehicle zero | caspase activation, % (no concentration beside the values) | 0.066% of 330,000 active | AID 2462, 2010;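 active = over half of replicate activation scores above 10%, or exactly half above 10 with the replicate mean above 10; inconclusive = replicate mean below 10 yet half the replicates above 10; inactive = over half of replicates below 10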;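 note: wells of about 30 µL received 50 nL stock; many hits fall short of the cut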
rRNA inh HTS OD600 – also measured in rRNA inh HTS; calls as there; OD600 change, %; measured here: OD600 growth;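 optical density of the mix in the first replicate; 0 = DMSO median and -100 = no signal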
rRNA inh HTS RFP – second read-out of rRNA inh HTS, no call of its own (marks repeat the call); RFP signal change, %; measured here: RFP humanized mutant strains;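 first replicate; 0 = DMSO median and -100 = no signal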
* = called active by the depositor; ? = inconclusive; / = no result given.

SMILES | T cruzi inh | RanGTP-Imp inh | Vif A3G | rRNA inh HTS | rRNA inh HTS OD600 | rRNA inh HTS RFP | MLL AF4-AF9 inh | Calb FLC | Beta apoptosis | Bfl-1 A1 inh
COC(=O)c1sccc1NC(=O)c1ccccc1 | -8 | 0.9 | 12% | 6 | 4 | -1.3 | -6.5 | -29 | -5 | 0.6
COCCn1c(SCC(=O)c2c[nH]c3ccccc23)nnc1-c1ccncc1 | -9 | -2.2 | / | / | / | / | / | 22 | -5 | 0.7
Cc1ccccc1-c1cccc(CN2CCN(C)C(CCO)C2)c1 (centres undefined) | 44 | 2.4 | / | -1 | -4 | -0.8 | 2.2 | -6 | -5 | 2.3
CCNc1nc(NC(C)(C)C)nc(N2CCCC2)n1 | 35 | -3.2 | 23% | / | / | / | / | 1 | 28 | -0.2
COC(=O)c1ccc(NC(=O)C2CC2)o1 | -16 | 0.0 | -7% | / | / | / | / | -7 | 0 | 0.9
CCN(C(=O)c1cccnc1)c1ccccc1 | 12 | 6.3 | 5% | / | / | / | / | 0 | -2 | 0.3
CN(C)CCCN=Cc1c(O)n(Cc2ccccc2)c(=O)c2ccccc12 | 39 | 3.3 | 2% | / | / | / | / | 7 | 1 | 0.0
COc1ccc(NC(=S)NC(=O)c2cncc(Br)c2)c(OC)c1 | -14 | 1.1 | 14% | -4 | -1 | -1.7 | -1.9 | 10 | 6 | 0.4
CSc1cccc(NC(=O)CSc2ccc(Cl)cc2)c1 | -13 | -3.1 | 0% | / | / | / | / | 3 | 0 | -0.6
COc1ccc(-c2cc(C(=O)Nc3ccc(Cl)cc3Cl)c3ccccc3n2)cc1OC | 7 | 2.9 | -9% | / | / | / | / | -4 | 47 | -0.8
O=C(/C=C/c1ccc(Cl)cc1)N1CCOCC1 | -14 | 1.1 | / | 0 | -1 | -3.9 | -2.3 | -1 | -3 | -2.1
O=C(NC1CC1)c1ccc2c(c1)S(=O)(=O)c1cc(Cl)ccc1C2=O | / | / | / | 6 | 9 | -8.0 | 0.1 | / | -6 | 0.1
CCCCn1c(N)c(N(C)C(=O)c2c(C)nn(-c3ccccc3)c2C)c(=O)[nH]c1=O | / | / | / | 6 | 12 | -3.0 | -3.0 | / | 5 | 0.3
NNC(=O)c1cc2ccccc2[nH]1 | -17 | -0.2 | 21% | -5 | 3 | -0.1 | -0.5 | 37 | -4 | 0.0
Fc1cccc(/C=N/NC(=S)Nc2ccccc2Cl)c1 | 2 | 3.3 | -3% | / | / | / | / | 0 | / | -1.4
O=C([C@H](O)c1ccccc1)N1CCC[C@H]1CO | -7 | 0.1 | -4% | 27 | 4 | 0.0 | 5.7 | -21 | -3 | 0.4
CC(=O)c1c(C)oc2ccc(NS(=O)(=O)c3ccc(O)c(C(=O)O)c3)cc12 | -13 | -0.9 | 3% | / | / | / | / | -1 | -1 | -0.5
CN(C)c1ccc(/C=C2/C=C(c3ccc4c(c3)CCCC4)OC2=O)cc1 | -3 | 8.3 | 2% | 11 | 16 | -2.8 | -9.4 | 1 | -5 | 0.3
COc1ccc(S(=O)(=O)N2CCN(C(c3ccccc3)c3ccccc3)CC2)cc1NC(C)=O | 0 | ? | / | 10 | 9 | -1.4 | -1.0 | -21 | 0 | 0.6
CCS(=O)(=O)c1ccc2oc(SCC(=O)NCCc3ccc(OC)cc3)nc2c1 | 5 | 4.9 | -5% | -21 | -25 | -4.6 | 1.6 | -32 | -4 | 0.0
CCN1CCN(Cc2ccc(NC(=O)Nc3ccc(OC)cc3)cc2)CC1 | 1 | -2.8 | 1% | 1 | 4 | 5.3 | -0.1 | -3 | / | 2.2
Cc1ccc(SCCNC(=O)CN2C(=O)c3ccccc3S2(=O)=O)cc1 | 6 | 7.4 | 0% | / | / | / | / | -5 | -6 | 1.1
O=[N+]([O-])c1cccc(/C=N/Nc2nc(N3CCOCC3)nc(N3CCOCC3)n2)c1 | -8 | 1.9 | / | 16 | 19 | 0.2 | 0.2 | 13 | 2 | 0.6
CC(C)(C)NCc1cc2ccccc2[nH]c1=O | -3 | 1.8 | 31% | / | / | / | / | -1 | -1 | -0.5
S=C(Nc1ccccc1Cl)NC1CCN(Cc2ccccc2)CC1 | 13 | 0.4 | / | / | / | / | / | -29 | 7 | 0.6
CCOC(=O)c1cc(-c2cccs2)[nH]n1 | -3 | 2.0 | 4% | -9 | -7 | -2.4 | -1.9 | -8 | 1 | -0.2
Cc1nc2cc(C(=O)NCCN3CCOCC3)ccc2n1-c1ccc(F)cc1F | -6 | -0.1 | -2% | / | / | / | / | -1 | -3 | -0.2
COc1ccc(C2=C3C(=O)OCC3Cc3ncn(Cc4ccccc4)c32)cc1 (centres undefined) | / | / | / | -19 | -17 | -6.2 | -1.3 | / | -4 | -0.1
O=C(Nc1nc2ccccc2c(=O)[nH]1)c1ccccc1SCc1ccccc1 | -20 | 1.2 | -6% | 10 | 10 | -0.3 | -1.3 | -1 | 7 | -0.4
CCc1cc2c3c(c1)C(C)CC(C)(C)N3C(=O)/C2=C1\SC(=O)NC1=O (centres undefined) | -17 | -0.3 | / | -17 | -20 | -4.1 | / | 25 | 4 | 0.3
COc1ccc(C(C)=O)cc1CSc1ccccn1 | -5 | ? | -2% | -10 | -4 | -0.3 | 21 | -21 | / | 0.4
CN(C)N=C1c2cc(S(=O)(=O)N3CCOCC3)ccc2-c2ccc(S(=O)(=O)N3CCOCC3)cc21 | 2 | 1.0 | / | / | / | / | / | 1 | -9 | 0.6
CC(Cc1ccccn1)NC(=O)c1ccc(OC2CCN(Cc3ccccn3)CC2)cc1 (centres undefined) | -7 | 7.2 | / | 1 | 0 | 1.4 | 0.7 | -4 | 4 | -1.1
O=c1cc(CO)oc(C(Nc2cccc([N+](=O)[O-])c2)c2ccccn2)c1O (centres undefined) | 2 | 7.1 | ? | 0 | 5 | 26 | 12 | -7 | / | 0.0
COc1ccc(CCNC(=S)Nc2ccc(C(C)C)cc2)cc1 | -15 | 9.9 | 10% | -50 | -70 | -21 | 4.4 | -9 | 7 | -0.2
Cn1c(=O)n(CC(=O)O)c(=O)c2c1nc1n2CCCN1Cc1ccccc1 | 5 | ? | / | 7 | 13 | 2.1 | 1.0 | 5 | 3 | -0.3
COc1cccc(CNCc2ccco2)c1O | -2 | 1.2 | -4% | 10 | 10 | -1.2 | 0.6 | -6 | / | /
Cc1onc(-c2c(Cl)cccc2Cl)c1NC(=O)NC1CCSC1 (centres undefined) | 2 | 3.2 | -3% | 13 | -2 | 5.1 | -0.4 | 0 | -1 | -0.5
O=C(Nc1nc(COc2ccccc2)cs1)c1ccccc1F | -15 | -0.5 | 11% | / | / | / | / | 4 | 2 | -1.2
CC1CC(C)(C)NC(=S)N1CCCC(=O)NCCc1ccc(Cl)cc1 (centres undefined) | 11 | -2.4 | 10% | -11 | -2 | -0.4 | 0.8 | -1 | 1 | 0.0
CCCC(=O)NC(C)C(c1cccs1)N1CCN(C)CC1 (centres undefined) | 2 | 7.0 | 50% | 15 | 12 | -7.5 | -15 | -18 | -3 | -1.2
COc1ccc(NS(=O)(=O)c2ccc(-c3coc(C)n3)cc2)c(OC)c1 | 2 | -2.8 | / | 3 | -2 | -0.9 | -8.2 | -13 | 17 | -0.5
O=C(Nc1ccc(NC(=O)c2cccs2)cc1)c1ccc2ccccc2c1 | -7 | 3.8 | -7% | 12 | 21 | 2.8 | 0.5 | 14 | 1 | -0.5
CCCC(C(=O)NCCC(C)C)N(Cc1ccccc1)C(=O)c1snc(C(N)=O)c1N (centres undefined) | -25 | ? | / | -14 | -21 | -3.1 | 1.3 | -4 | / | 0.7
O=C(NC1CCCCC1)N(CCO)Cc1cc2cc3c(cc2[nH]c1=O)OCCO3 | -6 | 7.9 | 9% | / | / | / | / | 0 | -9 | -1.6
COc1cccc(NC(=O)Nc2cccn(Cc3ccc(C)cc3)c2=O)c1 | 24 | 1.1 | -8% | -29* | -15* | -0.9* | -0.3 | -2 | 2 | 0.1
O=C(/C=C/c1ccco1)NC(=S)Nc1cccc(C(=O)O)c1 | 11 | -1.2 | / | 13 | 8 | 7.4 | -1.5 | -3 | -2 | 0.4
CC1CCCN(C2(O)C(=O)Nc3ccc([N+](=O)[O-])cc32)C1 (centres undefined) | -8 | 1.7 | / | 5 | 4 | 2.1 | 0.8 | -4 | -10 | 0.3
COc1ccc(-c2nnn(CC(=O)N(CC(=O)NC3CCCC3)Cc3ccco3)n2)cc1OC | 5 | -1.6 | 3% | 5 | 9 | 0.2 | 8.0 | -15 | -2 | 0.4
O=c1oc2ccccc2c2c1nnn2CCO | 2 | 3.6 | -4% | 13 | 2 | 0.1 | -0.1 | -3 | -5 | -0.1
COc1cccc(CN(C)C(=O)COc2ccc(C(=O)c3ccc(Cl)cc3)cc2)c1OC | -1 | -4.0 | / | -9 | -37 | 6.5 | 0.8 | 1 | / | ?
O=C(CN1C(=O)NC2(CCCC2)C1=O)OCc1ccc(F)cc1 | -11 | -1.9 | 6% | 3 | 11 | -2.3 | -6.8 | 0 | -1 | 0.6
CCCC(=O)NC(c1ccc(OC)cc1)c1ccc2cccnc2c1O (centres undefined) | 74* | 0.4 | 31% | -52 | -71 | -25 | 29* | 102* | 97* | 0.3
Cc1ccc(N=C2C(=O)Nc3ccc(Br)cc32)cc1 | -8 | 5.7 | -2% | -1 | 5 | 3.5 | -1.5 | -16 | -14 | 0.1
O=C(CSc1nc2c([nH]c3ccccc32)c(=O)n1-c1cccc(Cl)c1)N1CCOCC1 | 32 | ? | 1% | 5 | 19 | 0.2 | -1.6 | 14 | / | -0.3
CCc1cc2cc3c(cc2nc1SCC(=O)Nc1c[nH]c(=O)[nH]c1=O)OCO3 | -24 | 0.3 | / | 5 | 7 | 0.4 | 2.4 | 15 | 1 | -0.6
CN(/N=C/c1cc(Cl)cc(Cl)c1O)C(=S)NC(C)(C)C | -12 | 4.5 | 0% | -14 | -7 | -3.9 | -2.0 | -5 | 15 | 1.0
CNc1ncc(C(=O)c2ccc(-c3ccccc3)cc2)s1 | 1 | 2.3 | -10% | -8 | 7 | 1.6 | 3.9 | 3 | 4 | -1.8

An excerpt; the hit share may differ from the screen's.
